CDC25B-CDK2 inh: human CDC25B-CDK2/CyclinA binding inhibition | P30305+P24941 | HTRF CDC25B-CDK2/CyclinA binding, anti-His/anti-Flag; hits give high values | z-score (test concentration not listed) | 94,000 tested, 0.72% active;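 note: score is relative to mean and SD of negative controls; strong numbers were not always called active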
HIV TAR-Tat: HIV-1 TAR-Tat binding disruption; 100,000 tested, 0.6% active; HIV-1 TAR RNA, Tat peptide displacement FRET; hits give high values; z-score (concentration not given with the values);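 note: score is relative to mean and SD of negative controls; some compounds called inactive have numbers as strong as hits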
* hit, by the source's call; . = no result given.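 Rule for the calls: active = z-score from 3 up in half or more of its runs; inactive = the rest.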

molecule | CDC25B-CDK2 inh | HIV TAR-Tat
Cc1ccc(-n2ncc3c2ncn2nc(COc4ccc(Cl)cc4)nc32)cc1 | -0.45 | 1.01
O=C(Nc1ccc(F)cc1F)c1nc(-c2ccncc2)no1 | . | 2.83
O=c1[nH]c(CSCc2ccccc2)nc2c1C1(CCCC1)Cc1ccccc1-2 | 0.51 | .
O=C1c2[nH]nc(-c3ccccc3O)c2C(c2ccccc2F)N1CC1CCCO1 (stereo not drawn) | 2.53 | 1.5
CCn1c(C(=O)N2CCC(C(=O)NC3CCCCCC3)CC2)cc2sccc21 | -0.68 | .
Clc1ccc(/C=C/c2nc3ccccc3o2)cc1 | -1.08 | 1.9
Fc1ccc(CNC(=S)Nc2ccc(F)cc2F)cc1 | -3.78 | .
CCCCn1nc(NS(=O)(=O)c2ccccc2)c2cc3cccc(C)c3nc21 | -0.07 | 1.94
CCOC(=O)C1CCCN(c2cc(NC(C)C)c3c4c(onc24)-c2ccccc2C3=O)C1 (stereo not drawn) | -1.96 | 1.71
Cc1cc2c(cc3c(SCc4ccc(Cl)cc4)nnc(C)n32)o1 | . | -1.87
Cc1ccc(/C(O)=C2\C(=O)C(=O)N(CCC(=O)O)C2c2cccc(F)c2)cc1 (stereo not drawn) | -0.92 | .
COc1cc(NC(=O)NCC2CCCO2)cc2sc(NS(=O)(=O)c3ccccc3)nc12 (stereo not drawn) | . | 0.36
COc1cc(-c2coc3cc(OCc4ccccc4)c(OC)c(O)c3c2=O)cc(OCc2ccccc2)c1OC | . | 25.8*
O=C1CCCC2=C1C(c1cccc(O)c1)Nc1ccccc1N2 (stereo not drawn) | -1.84 | .
O=C(CCc1ccc(O)cc1)c1c(O)cc(O)cc1O[C@@H]1O[C@H](CO)[C@@H](O)[C@H](O)[C@H]1O | . | 3.19

Next section.
molecule | CDC25B-CDK2 inh | HIV TAR-Tat
Cc1ccc(/C(O)=C2\C(=O)C(=O)N(CCCC(=O)O)C2c2cccc(F)c2)cc1 (stereo not drawn) | 1.6 | -1.43
CC(=O)N(C)Cc1nc2ccccc2n1C(C)C | -0.69 | 2.29
N/C(=N\O)c1ccc(OCc2ccc(Cl)cc2)cc1 | -1.95 | .
COc1cccc(N2C(=O)Nc3ccccc3C2(O)C(=O)NCc2ccccc2)c1 (stereo not drawn) | -1.39 | .
CCc1ccc(C2CC(=O)NC(NC(=O)c3ccc4c(c3)OCO4)=N2)cc1 (stereo not drawn) | . | 0.34
O=C(Nc1cc(F)c2nc(N3CCCC3)ccc2c1)C1CCC1 | . | -3.55
Cc1c(C(=O)NCCN2CCOCC2)oc2ccc3c(c12)C(O)CC1(CCCC1)O3 (stereo not drawn) | . | 1.39
O=C(O)C1CCCN(S(=O)(=O)c2ccccc2)C1 (stereo not drawn) | -0.85 | 0.76
COc1ccccc1NC(=O)N1CCN(c2ccccn2)CC1 | -1.24 | .
COc1ccc(C2CC3CC(c4ccccc4)N2O3)cc1 (stereo not drawn) | -1.74 | .
O=C(NCC(c1cccs1)S(=O)(=O)c1cccs1)c1ccc2c(c1)OCO2 (stereo not drawn) | . | 1.01
O=C(NCCc1c[nH]c2ccccc12)c1ccc2c(c1)sc1nc(-c3ccccc3)cn12 | . | 1.82
CCOC(=O)N1CCN(S(=O)(=O)c2ccc3c(c2)CC(C)N3C(=O)C2CC2)CC1 (stereo not drawn) | . | 1.33
Cc1ccc2nc(Nc3ccccc3Cl)c3nncn3c2c1 | -0.91 | -0.46
CCOC(=O)c1c(NC(=O)CNCCO)sc(C)c1C | -2.12 | -0.46

(cont.)
molecule | CDC25B-CDK2 inh | HIV TAR-Tat
Cc1nn(-c2ccc(Cl)cc2)c2nc(-c3ccco3)cc(C(F)(F)F)c12 | -1.03 | 0.49
Fc1ccc(-c2csc3ncnc(N4CCCCC4)c23)cc1 | . | 0.53
CSc1nc(NCCCO)c(C#N)c(-c2ccccc2)n1 | -0.27 | 0.52
O=C(CCCc1nnc2c(=O)n(-c3ccc(Cl)cc3)ccn12)N1CCN(c2ccccc2F)CC1 | . | 1.93
COC(=O)c1sccc1OC(=O)c1nn(-c2ccccc2)nc1C | -0.8 | .
O=c1c2nnc(SCc3ccccc3F)n2ccn1-c1cccc(F)c1 | . | -0.1
CC(=O)N1CCN(c2oc(/C=C/c3cccs3)nc2C#N)CC1 | -1.82 | 1.23
O=C(COc1ccc(F)cc1)OCc1cc(=O)n2nc(-c3cccs3)sc2n1 | . | 0.26
Cc1c(Sc2ccc(Cl)cc2)cnn1CCC#N | -3.52 | .
CCSc1ccc2c3c(cccc13)C(=O)N(Cc1ccccc1)C2=O | -1.88 | .
Cc1ccc(/C(O)=C2\C(=O)C(=O)N(Cc3cccnc3)C2c2ccccc2F)cc1 (stereo not drawn) | -0.89 | 1.73
CC1=C(C#N)C(c2ccoc2)C(C(=O)OCc2ccccc2)=C(N)S1 (stereo not drawn) | -0.05 | .
O=C(Cn1cc2c(n1)CCCCC2)NCc1cccs1 | -0.22 | .
Cn1c(=O)n(Cc2ccc(Cl)cc2)c(=O)c2c1nc1n2CCN1c1ccc(F)cc1 | . | 2.48
CCC(O)(c1ccccc1)C(CN1CCOCC1)c1ccccc1 (stereo not drawn) | -1.23 | 3.75

(more compounds)
molecule | CDC25B-CDK2 inh | HIV TAR-Tat
Cn1c(=O)c2c(-c3ccccc3)n(-c3ccccc3N)cc2n(C)c1=O | -0.18 | -1.2
O=C1CN(C(=O)c2ccco2)C(c2ccc(F)cc2)c2cc(Br)ccc2N1 (stereo not drawn) | 0.44 | .
O=C(c1cccs1)N1CCN(c2cc(=O)n3nc(-c4ccccc4)sc3n2)CC1 | . | -1.3
NC(=O)CSc1nc2nccnc2c(=O)n1Cc1ccccc1 | 0.98 | 1.33
CCCCCCCCCCC(C)(C)C(=O)Nc1c(OC)cc(OC)cc1OC | -2.7 | .
COc1cccc(C2=NC(C)(C(C)C)NC(c3ccccc3O)C2)c1 (stereo not drawn) | -0.68 | .
COc1ccc(N2CCN(CCNc3ncnc4onc(C)c34)CC2)cc1 | . | 1.05
Cn1c(=O)c(=O)n(CC(=O)N2CCCC2)c2ccccc21 | . | 0.85
CCCC(C)NC(=O)CN1c2ccc(Br)cc2-c2ccccc2S1(=O)=O (stereo not drawn) | -1.28 | 0.29
c1ccc(CN2CCC(Nc3nc4ccccc4c4nncn34)CC2)cc1 | . | 1.12
CCCCSC1=C(C#N)C(=O)NC(CO)S1 (stereo not drawn) | -3.01 | 1.47
COc1ccccc1Nc1nc(-c2sc(N)nc2C)cs1 | -0.6 | -4.93
CCC12CN3CC(CC)(CN(C1)C3c1ccc(O)cc1)C2O (stereo not drawn) | 0.75 | 0.31
Cc1ccc2oc(=O)c3cnn(CC(=O)N(Cc4ccco4)C4CCCC4)c3c2c1 | -0.68 | 1.41
Cc1nn(-c2ccccc2)c2c1C(c1ccccc1Cl)C1=C(CC(C)(C)CC1=O)N2 (stereo not drawn) | -1.97 | .

Further structures
molecule | CDC25B-CDK2 inh | HIV TAR-Tat
CCOC(=O)N1CCN(C(=O)CCS(=O)(=O)c2ccc3c(c2)NC(=O)CO3)CC1 | . | 2.12
COc1ccc(Cl)cc1NC(=O)CSc1nc2ccncc2[nH]1 | -1.73 | 0.76
CC1Cc2cc(S(=O)(=O)NCC3CCCO3)ccc2N1C(=O)C1CCC1 (stereo not drawn) | . | 0.45
CCOc1ccc(-c2noc(CSc3nc4cc5c(cc4c(=O)n3C(C)C)OCO5)n2)cc1 | . | 0.74
Cc1ncc(CO)c2c1Oc1nc(-c3ccc(F)cc3)nc(SCC(=O)N3CCCCC3)c1C2 | . | -0.29
CCN(CC)c1c(S(=O)(=O)c2ccccc2)cnc2cc3c(cc12)OCCO3 | -1.92 | -1.58
CC1=C(C(=O)Nc2cccc(F)c2)C(c2ccc(C(C)(C)C)s2)C2=C(CCCC2=O)N1 (stereo not drawn) | -1.81 | -0.29
CCCCOc1cc(C(=O)NCCN(CC)CC)c2ccccc2n1 | . | -1.08
Cc1cc(C)n(-c2cc(NCC(C)c3ccccc3)ncn2)n1 (stereo not drawn) | . | -0.73
Cc1ccc2occ(CC(=O)Nc3nnc(C)s3)c2c1 | -1.1 | 0.76
O=C(O)c1cccc2c1NC(c1ccc(F)cc1)C1C3CCC(C3)C21 (stereo not drawn) | -1.29 | -1.93
CC(C)c1cc(C(=O)Nc2nc3c(s2)CCCC3)nn1C1CCS(=O)(=O)C1 (stereo not drawn) | -0.16 | 1.81
CCCCN(C)CCCNC(=O)C(=O)c1c(C)n(C)c2ccccc12 | -0.9 | .
COc1ccc(-n2c(SCC(=O)N3CCCC3)nc3c(c2=O)SCC3)cc1 | -1.22 | -5.33
COCc1nn2cc(-c3ccc(C)c(C)c3)nc2s1 | -1.21 | 2.24

The list continues:
molecule | CDC25B-CDK2 inh | HIV TAR-Tat
CC(=O)N1N=C(c2ccc(Br)cc2)OC12CCCCC2 | -0.16 | .
O=C(Nc1ccc(-c2nc3ccccc3s2)c(O)c1)c1ccc(-c2ccccc2)cc1 | -2.27 | .
CCC(C)(C(=O)NC1CCCC1)N(CC1CCCO1)C(=O)CC1NC(=O)NC1=O (stereo not drawn) | 0.99 | .
CCOC(=O)c1[nH]ncc1-c1ccc(Cl)cc1Cl | -1.13 | .
CCc1nn(CCCC(=O)NCc2ccc(C)cc2)c(=O)c2cc3oc(C)cc3n12 | -1.97 | 5.9
O=c1c(NCCc2ccccc2)c(-c2ccccc2)c1=O | . | 1.29
C=CCOC(=O)C1=C(C)Nc2nc3ccccc3n2C1c1ccccc1 (stereo not drawn) | -0.94 | 0.51
O=S(=O)(Nc1cccc(-c2nnco2)c1)c1cc(Cl)c(Cl)cc1Cl | -0.32 | .
O=C(CSc1nccc(=O)[nH]1)n1c2c(c3ccccc31)CCCC2 | -0.93 | 0.49
CC1CCN(CC2CCN(S(=O)(=O)c3ccc4c(c3)oc(=O)n4C)CC2)CC1 | . | 0.75
O=C(CN(C1=NC2CS(=O)(=O)CC2S1)c1ccc(F)cc1)Nc1ccc(F)cc1 (stereo not drawn) | -1.84 | 1.66
O=C[C@@H]1CCCN1C(=O)[C@@H]1CCCN1C(=O)OCc1ccccc1 | . | 0.61
Oc1ccc(Cl)cc1C=Nc1ccc2cn[nH]c2c1 | 9.07* | .
Cn1nc(C(=O)N2CCN(c3ccc(F)cc3)CC2)c2c1-c1ccccc1SC2 | -1.69 | 1.61
O=C(Oc1ccc2ccccc2c1)c1ccncc1 | 0.04 | 0.31

Next entries follow:
molecule | CDC25B-CDK2 inh | HIV TAR-Tat
O=c1[nH]ncc2c3ccccc3n(Cc3ccc(F)cc3)c12 | -2.75 | 0.44
Cc1cc(C)c(S(=O)(=O)NCc2nnnn2-c2ccc(C)c(C)c2)c(C)c1 | . | -0.01
CN(C(=O)C(NS(=O)(=O)c1ccc2c(c1)CCC(=O)N2)c1ccccc1)C1CCCCC1 (stereo not drawn) | -0.69 | .
O=C(C1CCCN(c2ncnc3c2nc2n3CCCCC2)C1)N(Cc1ccco1)C1CCCC1 (stereo not drawn) | . | -0.25
CCCS(=O)(=O)c1c(S(=O)(=O)CCC)c2cc(-c3ccncc3)ccn2c1C(=O)OC | -1.59 | -0.01
Cc1ccc(N2C(=O)CC(N3CCOCC3)C2=O)cc1C (stereo not drawn) | 0.15 | .
Cc1cccc(N2C(=O)Nc3ccccc3S2(=O)=O)c1 | . | 2.01
CCCc1nnc(NC(=O)CSc2nc(-c3ccccc3)nc3cc(=O)[nH]n23)s1 | . | -0.33
Clc1ccc2nc(-c3ccncc3)c(NC3CCCCC3)n2c1 | -1.14 | 1.85
Cn1cc(CN(C(=O)Nc2ccccc2)C2CCCCC2)c2ccccc21 | 1.72 | .
COC(=O)c1sccc1-c1ccc(CN2CCCc3cc(OC)ccc32)o1 | -0.25 | .
O=C(CSc1nc(-c2ccco2)nc2cc(=O)[nH]n12)NCC1CCCO1 (stereo not drawn) | . | 2.38
Cc1noc(C)c1S(=O)(=O)Nc1cccc(Cl)c1 | 0.21 | 0.27
CN(C)S(=O)(=O)c1ccc2nc(NC(=O)CCSc3ccc(Cl)cc3)sc2c1 | . | 0.28
CC1(C)NC(=O)N(CC(O)Cn2c3ccccc3c3ccccc32)C1=O (stereo not drawn) | -1.14 | 2.06

Of the compounds above, these contain an NH in an aromatic ring.
molecule | CDC25B-CDK2 inh | HIV TAR-Tat
O=c1[nH]c(CSCc2ccccc2)nc2c1C1(CCCC1)Cc1ccccc1-2 | 0.51 | .
O=C1c2[nH]nc(-c3ccccc3O)c2C(c2ccccc2F)N1CC1CCCO1 (stereo not drawn) | 2.53 | 1.5
O=C(NCCc1c[nH]c2ccccc12)c1ccc2c(c1)sc1nc(-c3ccccc3)cn12 | . | 1.82
COc1ccc(Cl)cc1NC(=O)CSc1nc2ccncc2[nH]1 | -1.73 | 0.76
CCOC(=O)c1[nH]ncc1-c1ccc(Cl)cc1Cl | -1.13 | .
O=C(CSc1nccc(=O)[nH]1)n1c2c(c3ccccc31)CCCC2 | -0.93 | 0.49
Oc1ccc(Cl)cc1C=Nc1ccc2cn[nH]c2c1 | 9.07* | .
O=c1[nH]ncc2c3ccccc3n(Cc3ccc(F)cc3)c12 | -2.75 | 0.44
CCCc1nnc(NC(=O)CSc2nc(-c3ccccc3)nc3cc(=O)[nH]n23)s1 | . | -0.33
O=C(CSc1nc(-c2ccco2)nc2cc(=O)[nH]n12)NCC1CCCO1 (stereo not drawn) | . | 2.38

New compounds follow:
molecule | CDC25B-CDK2 inh | HIV TAR-Tat
Cc1ccc(-c2nnc3ccc(SCC(=O)Nc4cc(C)on4)nn23)cc1 | -1.5 | .
CO[C@H]1CC(O[C@@H]2/C(C)=C/C[C@@H]3C[C@@H](C[C@]4(CC[C@H](C)[C@@H](C5CCCCC5)O4)O3)OC(=O)[C@@H]3C=C(C)/C(=N/O)[C@H]4OC/C(=C\C=C\[C@@H]2C)[C@]43O)O[C@@H](C)C1O (stereo partly drawn) | . | -0.56
O=C(Nc1ccc(N2CCOCC2)cc1)c1ncn[nH]1 | -1.69 | 0.31
CCN(CC)C(=O)CSc1nc2ccccc2c(=O)n1CC1CCCO1 (stereo not drawn) | . | 1.68
